# High-throughput results: PubChem, Center for Chemical Genomics, University of Michigan
# TAR Tat displ – HIV-1 TAR-Tat binding disruption; z-score (concentration not given with the values); HIV-1 TAR RNA, Tat peptide displacement FRET; hits give high values; 100,000 tested, 0.6% active;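 further: score is relative to mean and SD of negative controls; some compounds called inactive have numbers as strong as hits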
# CDC25B CDK2 inh – human CDC25B-CDK2/CyclinA binding inhibition | HTRF CDC25B-CDK2/CyclinA binding, anti-His/anti-Flag; hits give high values | 94,000 tested, 0.72% active | AID 1259370 | z-score (test concentration not listed);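 further: score is relative to mean and SD of negative controls; strong numbers were not always called active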
# An asterisk follows results filed as active; · = not tested or not shown.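 How the source made its calls: active means z-score from 3 up in half or more of its runs; inactive means the rest.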
canonical_smiles,TAR Tat displ,CDC25B CDK2 inh
Cc1nc(NCc2ccc3c(c2)OCO3)c2c3c(sc2n1)CCC3,0.94,·
C[N+]1=C(/C=C/Nc2ccccc2)CCC1,·,-3.6
Cn1c(Cn2c(=O)sc3ccccc32)nnc1SCC(=O)NCCc1ccccc1,·,-0.53
CCCCN(CC)C(=O)Cn1nc(CC)n2c(cc3sccc32)c1=O,-0.8,-0.34
Cc1occc1-c1nnc2sc(/C=C/c3ccc(F)cc3)nn12,-0.71,-1.3
CC1(C)Cc2nc3oc4c(=O)n(Cc5ccc(Cl)cc5)cnc4c3cc2CO1,2.5,·
Cc1csc2ncc(C(=O)NCCc3ccco3)c(=O)n12,1.2,·
CCN1c2cc(C)ccc2-n2cccc2C12CCN(C(=O)NC(C)C)CC2,1.5,·
N#CCC(=O)NCCc1ccccn1,·,-2.6
CCc1nnc(NS(=O)(=O)c2ccc(N=Cc3c(C)[nH]n(-c4ccc(C)c(C)c4)c3=O)cc2)s1,·,-0.18

# New compounds follow.
canonical_smiles,TAR Tat displ,CDC25B CDK2 inh
CCN1CCCC1CNC(=O)CSCc1cnn(-c2ccccc2)c1-n1cccc1 (configuration not stated),-0.08,-0.48
COC(=O)c1ccc(CSc2nc3ccccc3c(=O)[nH]2)cc1,·,-0.44
O=C1CN(Cc2ccc(F)cc2)S(=O)(=O)c2ccccc2N1Cc1ccccc1,1.2,·
Cn1c(=O)[nH]c(=O)c2c1ncn2Cc1ccc(F)cc1,0.3,-0.98
CCOC(=O)C1CCN(C(=O)C2Cc3ccccc3N2C(=O)OCc2ccccc2)CC1 (configuration not stated),·,-1.1
Cc1ccc2nc(SCCOc3ccccc3)[nH]c2c1,-0.63,-1.7
O=C(CSc1ncccc1C(=O)O)Nc1cc(Cl)cc(Cl)c1,·,-0.12
O=[N+]([O-])c1ccc(-c2nnnn2Cc2c(Cl)cccc2Cl)cc1,·,-2
O=C1NC(=O)C(Cc2ccc(O)cc2)N1 (configuration not stated),0.89,-1.6
Cc1nn2c3c(cnc2c1-c1ccccc1)C(=O)CC(c1ccc(Cl)cc1)C3 (configuration not stated),-1.8,-1.3

# Later entries
canonical_smiles,TAR Tat displ,CDC25B CDK2 inh
O=c1oc2ccccc2c2c1ncn2CCN1CCCCC1,1.2,-0.88
Cc1ccc(CNC(=O)c2cnc3sc(N4CCCC(C)C4)nn3c2=O)o1 (configuration not stated),0.49,·
Cn1ncc2c(N3CCCC3CO)ncnc21 (configuration not stated),0.6,·
O=C(c1ccc(O)cc1)c1ccc(O)cc1O,0.9,-0.62
CCc1ccccc1NC(=O)NC1=C(C#N)C(C)(C)Cc2ccccc21,1.2,-2.5
CCOC(=O)c1cncc(C#CCOC(=O)Nc2ccc(OC(F)(F)F)cc2)c1,·,-1.1
O=C(Nc1ccc(F)cc1F)c1cc2ccc3cccnc3c2[nH]1,0.93,·
Oc1ccccc1/C=N/NC(=S)NC1CC2CC1C1C=CCC21 (configuration not stated),·,-1.1
O=C(CSc1nc2ccc(N3C(=O)c4ccccc4C3=O)cc2s1)c1ccc(Cl)cc1,·,-9.1
CC(C)(C)c1cc(CC(=O)O)c2c(c1)C(C)(C)CC2,-0.59,-1.3

# New compounds follow
canonical_smiles,TAR Tat displ,CDC25B CDK2 inh
CN(C)c1ccc(CNS(=O)(=O)c2ccc3c(c2)C(C)(C)C(=O)N3C)cc1,0.09,·
O=C(Cn1ncn2c(cc3cc(F)ccc32)c1=O)N1CCN(c2ccccn2)CC1,0.66,-1.7
C1=CCC(C2OCC(CN3CCCCC3)O2)CC1 (configuration not stated),·,-1.1
CCCCOc1ccc(N2C(N)=NC(N)=NC2(C)C)cc1,·,-1.2
O=[N+]([O-])c1ccc(N=Nc2ccc3c(c2)[nH]c2ccccc23)cc1,·,-2.6
O=C1CC(NCCCN2CCN(c3ccc(F)cc3)CC2)C(=O)N1c1ccc(Cl)cc1 (configuration not stated),-2.4,-2.3
CS(=O)(=NC(=O)c1cccnc1Oc1ccccc1)c1ccc(Cl)cc1 (configuration not stated),·,-1.6
O=C(O)c1ccccc1/C=C/c1cccs1,·,-1.5
CCN(CC)c1c(S(=O)(=O)c2ccc(Cl)cc2)cnc2cc3c(cc12)OCCO3,0,-0.41
COc1ccc(C2c3c(oc4cc(C)cc(C)c4c3=O)C(=O)N2Cc2ccco2)cc1OC (configuration not stated),-0.21,-1.8

# (cont.)
canonical_smiles,TAR Tat displ,CDC25B CDK2 inh
CC1=CCC(COC(=O)Nc2ccccc2)CC1 (configuration not stated),1.4,0.19
c1ccc(-c2nn3c(-c4ccco4)nnc3c3ccccc23)cc1,0.66,1
O=C(Nc1cc(=O)[nH]c(=O)[nH]1)C(c1ccccc1)c1ccccc1,1.4,·
Cc1[nH]nc(-c2ccc(S(=O)(=O)Nc3ccc(-c4ccno4)cc3)s2)c1C,0.32,·
CCOc1ccc(OCC)c(Nc2c(-c3ccc(C)c(C)c3)c(=O)c2=O)c1,-4.3,·
COc1ccccc1NC(=O)NCc1nnnn1-c1ccccc1,0.81,·
COc1ccc(N2C(=O)/C(=C/c3ccc(OC(=O)C45CC6CC(CC(C6)C4)C5)c(OC)c3)SC2=S)cc1,·,0.87
CN(C(=O)c1cc2nc(-c3ccco3)cc(C(F)(F)F)n2n1)C1CCCCC1,0.29,-0.96
O=C(Cn1ncc2ccsc2c1=O)N1CCN(c2cccc(Cl)c2)CC1,-0.31,-1.8
CCSc1nn2c(=O)cc(CSc3nc(C)cc(=O)[nH]3)nc2s1,2.5,-1.5

# (list continues)
canonical_smiles,TAR Tat displ,CDC25B CDK2 inh
COc1ccc(C)cc1-n1nnc(-c2nc(-c3ccc4c(c3)OCO4)no2)c1N,1,·
CCC(=O)N1c2ccc(S(=O)(=O)CCC(=O)NCc3ccc4c(c3)OCO4)cc2CC1C (configuration not stated),·,-3.3
Cc1nc(-c2ccc(C)c(S(=O)(=O)Nc3cc(F)ccc3F)c2)cs1,1,·
S=C(NC1CCCCC1)N1CCOCC1,·,-1.1
O=[N+]([O-])c1cccc(-c2nnc(C3c4ccccc4Oc4ccccc43)o2)c1,·,-0.48
COCCNC(=O)c1ccc(N2CCSc3ncccc32)s1,-0.66,·
Cc1c(C(=O)CCSc2ccc(Cl)cc2)sc2ccc(Cl)cc12,·,-1.7
CC(Sc1nc2ncccc2[nH]1)C(=O)N(C)c1ccc(F)cc1 (configuration not stated),0.86,·
CCCN1CCN(c2ncc3c(n2)CCN(Cc2ccc(C)s2)C3)CC1,0.09,·
Cc1nc2ccccc2[nH]c1=O,·,-2

# More entries follow.
canonical_smiles,TAR Tat displ,CDC25B CDK2 inh
COCCCNc1ncnc2c1cnn2-c1ccc(Cl)cc1,·,1.6
Nc1nc2ccccc2n1CCOc1ccc(Br)cc1,-0.51,-1.3
CCN(CC)S(=O)(=O)c1ccc2c(c1)nc(CN(C)S(=O)(=O)Cc1ccccc1)n2C,0.45,·
COC(=O)c1ccccc1-c1ccc(/C=C2/SC(=S)N(CC(=O)O)C2=O)o1,·,0.64
Cc1nnc(NC(=O)CSc2nc(-c3ccccc3)nc3cc(=O)[nH]n23)s1,2.3,·
COc1cccc(N(Cc2ccc(F)cc2Cl)C2=NC3CS(=O)(=O)CC3S2)c1 (configuration not stated),-0.34,-2.4
Cc1cc(N/C=C(\C#N)C(=O)c2cccs2)no1,·,-0.63
O=C(Nc1ccc(-n2cnnn2)cc1)c1ccco1,1.2,-0.71
CC(C)N(CCNC(=O)c1ccc(NC2=NC3CS(=O)(=O)CC3S2)cc1)Cc1ccco1 (configuration not stated),1.9,·
Cn1cccc1Cc1nnc(SCC(=O)N2CCOCC2)n1-c1ccc(Cl)cc1,-1.2,-1.4

# Of the compounds above, nine have a thiophene ring, fused or not.
canonical_smiles,TAR Tat displ,CDC25B CDK2 inh
Cc1nc(NCc2ccc3c(c2)OCO3)c2c3c(sc2n1)CCC3,0.94,·
CCCCN(CC)C(=O)Cn1nc(CC)n2c(cc3sccc32)c1=O,-0.8,-0.34
O=C(O)c1ccccc1/C=C/c1cccs1,·,-1.5
Cc1[nH]nc(-c2ccc(S(=O)(=O)Nc3ccc(-c4ccno4)cc3)s2)c1C,0.32,·
O=C(Cn1ncc2ccsc2c1=O)N1CCN(c2cccc(Cl)c2)CC1,-0.31,-1.8
COCCNC(=O)c1ccc(N2CCSc3ncccc32)s1,-0.66,·
Cc1c(C(=O)CCSc2ccc(Cl)cc2)sc2ccc(Cl)cc12,·,-1.7
CCCN1CCN(c2ncc3c(n2)CCN(Cc2ccc(C)s2)C3)CC1,0.09,·
Cc1cc(N/C=C(\C#N)C(=O)c2cccs2)no1,·,-0.63

# (cont.)
canonical_smiles,TAR Tat displ,CDC25B CDK2 inh
O=C(NCc1ccc2c(c1)OCO2)c1cc(OCc2ccccc2)nc2ccccc12,0.97,·
COC(=O)c1ccc(C2C(C(=O)OC3CCCCC3)=C(C)NC3=C2C(=O)CCC3)cc1 (configuration not stated),1.9,-0.04
CCCOc1ccccc1C1C(C(=O)OCC2CCCO2)=C(C)NC2=C1C(=O)CCC2 (configuration not stated),0.47,1.6
CSc1ccc(CCNC(=O)c2cnn3c4c(cnc23)CCCCCC4)cc1,0.05,·
CCCCC1=NN(S(=O)(=O)c2ccc(C)cc2)C(O)(C(F)(F)F)C1 (configuration not stated),·,-1.4
CC(C)CCNC(=O)c1sc2ncccc2c1-n1cccc1,0.01,·
CCn1c2ccccc2c2cc(NS(=O)(=O)c3ccccc3)ccc21,-0.12,0.54
O=C(NC(NCc1ccco1)(C(F)(F)F)C(F)(F)F)c1cccnc1,·,-2.1
CN(CCC#N)c1ccc(C=NCCCN=Cc2ccc(N(C)CCC#N)cc2)cc1,·,0.72
COc1ccc(-c2cc(N3CCOCC3)nc(C)n2)cc1,0.18,0.71

# Additional records follow:
canonical_smiles,TAR Tat displ,CDC25B CDK2 inh
CC(C)(C)Nc1c([N+](=O)[O-])c(=O)sc2ccccc12,2.6,-1.9
Cc1ccccc1C1CC(=O)Nc2c1c(C)nn2-c1nc2ccccc2s1 (configuration not stated),3,-2.9
CCOC(=O)CSC1=C(C#N)C(C)C2=C(CCCC2=O)N1 (configuration not stated),-0.4,-0.4
O=C(Cc1ccsc1)N1CCC(n2nc(-c3ccccc3)oc2=O)CC1,1.4,0.25
N#CC1=C2SCN(c3ccc(F)cc3)CN2C(=O)CC1c1ccc(Br)cc1 (configuration not stated),-5,2.3
CCc1nn(CCCC(=O)NCc2ccco2)c(=O)c2cc3oc(C)cc3n12,-0.13,-1.8
CC1CCN(C(=O)CCC(=O)N2CCc3cc(S(=O)(=O)N4CCc5ccccc5C4)ccc32)CC1,0.31,·
NCC(O)C1CCCCCCC1 (configuration not stated),·,-0.8
CC(C)(C)NC1=NCCNC12CCN(S(=O)(=O)c1ccc(Br)cc1)CC2,-0.68,·
Cc1nnc2sc(/C=C/c3ccco3)nn12,11*,-1.1

# New compounds follow.
canonical_smiles,TAR Tat displ,CDC25B CDK2 inh
CC(C)(C)n1cnnc1Sc1ncccc1[N+](=O)[O-],·,0.16
CCOC(=O)N1CCC(NC(=O)C(C)n2nc(C)c3sc4ccccc4c3c2=O)CC1 (configuration not stated),0.55,-0.25
O=C(NCc1ccc2c(c1)OCO2)C(=O)Nc1ccc2nc3n(c(=O)c2c1)CCCCC3,·,-1.1
CC(C)c1nnc(NC(=O)CCCOc2ccc(Cl)cc2)s1,·,-2.3
Cc1ccc2cc(-c3noc(-c4cccnc4)n3)c(=O)[nH]c2c1,-2.9,-0.22
c1ccc(CN2CCC3(CC2)NCCc2c3[nH]c3ccccc23)cc1,1.8,-2
Cn1ncc2c(NCc3ccccc3)ncnc21,-0.24,·
CCOc1cc(C2C3=C(Nc4c2c(=O)n(C)c(=O)n4C)c2ccccc2C3=O)ccc1O (configuration not stated),0.01,-1.6
c1ccc2oc(-c3nn4cnnc4s3)cc2c1,-0.08,-0.67
O=C(O)c1c2c(nc3ccccc13)C(=O)N(C1CCCCC1)C2,-0.29,-2.1

# (cont.)
canonical_smiles,TAR Tat displ,CDC25B CDK2 inh
Cc1cc(C(=O)NCCN2CCCCC2)no1,·,0.14
COc1ccc2nc(Nc3nnc(-c4ccccc4Cl)o3)sc2c1,-0.39,1.9
CCCN(CCC)C(=O)c1nn(C)c2c1CSc1ccc(C)cc1-2,-0.92,·
O=C(CSc1nccn(-c2ccc(Cl)cc2)c1=O)c1ccccc1,0.6,·
CCCc1nc(SC)ncc1C(=O)Nc1ccc(Br)cc1F,-1.5,·
COc1ccc(OC)c(NC(=O)c2cn3c4c(ccc(Cl)c4c2=O)OC(C)C3)c1 (configuration not stated),-0.08,·
O=C(C1=Cc2sc3c(c2CS1)CCCC3)N1CCC(N2CCCCC2)CC1,0.91,·
Cc1cc(NC(=O)C(C)c2c(C)n[nH]c2C)no1 (configuration not stated),1.9,·
CCOC(=O)c1noc2ncnc(Nc3ccc(F)cc3Cl)c12,0.07,·
CC(O)c1cccc(Nc2ncnc3c2cnn3C)c1 (configuration not stated),2.5,·

# Further records:
canonical_smiles,TAR Tat displ,CDC25B CDK2 inh
Cc1nc(-c2ccc(S(=O)(=O)NCCC(C)C)cc2)co1,-1.2,·
CC1=C(C(=O)OCC(C)C)C(c2ccccc2Br)C2=C(CCCC2=O)N1 (configuration not stated),0.83,-0.54
COc1ccc(/C(O)=C2/C(=O)C(=O)N(CCN(C)C)C23C(=O)N(C)c2ccccc23)cc1 (configuration not stated),-0.16,1.4
Clc1ccc(CSC2=NCCN2)cc1,·,0.06
CCn1cc(CCCC(=O)O)c2ccccc21,0.93,-0.51
Cc1ccc(-n2ncc3c(NC4CCCCC4)ncnc32)cc1Cl,1.8,·
O=S(=O)(NN1CCOCC1)c1cccc2nonc12,·,-1.4
C/C(=C\Br)C(=O)OCCOc1ccccc1,·,0.09
Fc1cccc(CSc2ccc(-c3cccs3)nn2)c1,1.1,·
COCCCN1CN=C(NS(=O)(=O)c2ccc(C)cc2)NC1,1.6,-0.25
O=C(CCc1nnc2ccc(NCCCN3CCCC3=O)nn12)Nc1ccc(F)c(F)c1,0.8,·
